Screening data deposited in PubChem by Southern Research Institute.
Mtb growth: Mycobacterium tuberculosis H37Rv growth inhibition, putative kinase inhibitor library, confirmatory dose response (AID 2842). M. tuberculosis H37Rv growth inhibition; higher % means a stronger effect; some inactives read as strong as hits. hit rate 5.2% among 24,000. inhibition, % at 10 µg/mL; hits with a dose series show IC90 in µg/mL;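 active means confirmed in a dose series; about a fifth of its hits are not listed in these tables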;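 further: bacteria incubated one week before Alamar blue readout; 0% = bacteria only wells and 100% = bacteria with high antibiotic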
* hit, by the source's call. Not all compounds are listed; rates above refer to the full screens.

canonical_smiles,Mtb growth
O=C(/C=C/c1ccc(-c2ccc([N+](=O)[O-])cc2)o1)N1CCCCC1,5.3%
O=C(Nc1nnc(-c2ccc(F)cc2)s1)c1c(F)cccc1Cl,-4.3%
Cc1ccc(NCC(=O)Nc2ncc(Cc3cc(Cl)ccc3Cl)s2)cc1C,16.1%
C=CCNC(=O)CCCCCn1c(=O)[nH]c2ccsc2c1=O,-27.9%
O=C(NCc1ccccc1Cl)C1CCC(Cn2c(=O)[nH]c3ccsc3c2=O)CC1 (stereo not drawn),-2.6%
O=C(Nc1c(C(=O)Nc2ccc3c(c2)OCO3)oc2ccccc12)c1ccccc1Cl,13.4%
O=C(CC1Nc2ccccc2NC1=O)Nc1ccc(F)cc1 (stereo not drawn),-7.2%
COc1ccc(CCN2CCc3c(C)c(C#N)c4nc5ccccc5n4c32)cc1OC,0.8%
Cc1nnc(SCC(=O)N2CCc3ccccc32)n(N)c1=O,69.0%
COc1ccc(-c2nnc3c4cc5c(cc4n(Cc4ccccc4)cc2-3)OCO5)cc1,7.7%
CC1CCc2c(sc3nnn(CC(=O)NCc4ccco4)c(=O)c23)C1 (stereo not drawn),1.5%
O=C(CSc1ncnc2c1nnn2Cc1ccccc1F)Nc1ccc2c(c1)OCO2,-9.5%
Cc1ccc2cc(CCNC(=O)c3ccc(S(=O)(=O)N4CCOCC4)cc3)c(=O)[nH]c2c1,-5.0%
CC(=O)c1ccc(NC(=O)CC2CCS(=O)(=O)C2)cc1 (stereo not drawn),-8.1%
COc1ccc(-c2nnc3c4cc5c(cc4n(Cc4cccc(OC)c4)cc2-3)OCCO5)cc1,5.28µg/mL*
COc1cc(/C=N/NC(=O)Cn2nnc3ccccc32)ccc1O,-3.3%
CCOC(=O)c1sc(NC(=O)C2CC2)cc1C,6.0%
CC(C)C(Br)C(=O)Nc1nnc(-c2ccccc2)s1 (stereo not drawn),9.4%
CCCc1cc(=O)[nH]c2nnc(SCC(=O)NC3CCCCC3)n12,4.2%
CC1CCN(S(=O)(=O)c2ccc(C(=O)Nc3nc(-c4ccc(F)cc4)cs3)cc2)CC1,-7.0%
COc1ccc(Nc2nnc(Cc3ccc(F)cc3)c(=O)[nH]2)cc1OC,-8.0%
CCOC(=O)/C=C/C(=O)Nc1ccc(S(=O)(=O)Nc2nnc(CC)s2)cc1,73.8%
Cc1cc(C)cc(NC(=O)CN2N=NC3C(=O)N(c4ccc(F)c(F)c4)C(=O)C32)c1 (stereo not drawn),13.0%
O=C(O)/C=C\C(=O)NCc1ccc2c(c1)OCO2,-17.1%
COc1cc(-c2nc(C(N)=O)c3[nH]c(=O)n(-c4cccc(Cl)c4)c3n2)cc(Br)c1O,-9.6%
COc1ccc(C(=O)Nc2c(N)nc(SCC(=O)NCc3ccc(F)cc3)[nH]c2=O)cc1OC,-2.2%
COc1ccccc1-n1c(=O)[nH]c2c(C(N)=O)nc(-c3cc(Br)ccc3O)nc21,-3.6%
CCn1c(-c2ccccc2)cs/c1=N/NC(=O)c1ccncc1,59.0%
Cc1ccc2cc(CCNC(=O)C(C)Oc3ccccc3)c(=O)[nH]c2c1C (stereo not drawn),6.3%
CCOc1ccccc1NC(=O)c1oc2ccccc2c1NC(=O)CCl,55.8%
Nn1c(SCc2ccc(Cl)cc2Cl)nncc1=O,4.9%
CCC(=O)Nc1sc2c(c1C(N)=O)CCN(Cc1ccccc1)C2,4.9%
CCOc1ccc(-c2nnc3ccc(SCC(N)=O)nn23)cc1,-1.9%
COc1ccc(OC)c(-n2nnc(-c3nc(-c4ccncc4)no3)c2N)c1,-7.7%
CCCc1cc(-c2nc(N)ncc2-c2ccc3c(c2)OCO3)c(O)cc1OC,17.6µg/mL*
Cc1nc(CCn2cnc3cc(C)c(C)cc32)no1,-2.0%
O=C(CSc1ncnc2ccccc12)Nc1cccc(F)c1,-2.4%
Cc1ccc(C2c3sc(=O)[nH]c3SC3C4CC(C5C(=O)N(C(C)C(=O)O)C(=O)C45)C23)cc1 (stereo not drawn),-6.7%
COc1ccc(-c2nnc(NC(=O)Cc3ccc(F)cc3)s2)c(OC)c1,-8.6%
O=S1(=O)CCC(NCc2cccnc2)C1 (stereo not drawn),-0.4%
CCOC(=O)c1nn(-c2ccccc2)c(=O)c2c(NC(=O)C(c3ccccc3)c3ccccc3)scc12,-4.1%
CCOC(=O)c1nn(-c2ccc(F)cc2)c(=O)c2c(NC(=O)Cc3ccc(OC)c(OC)c3)scc12,-7.2%
Nc1c(-c2nc(-c3ccccc3F)no2)nnn1-c1ccc(Br)cc1,-0.7%
O=C(Nc1nnc(-c2ccc(Cl)s2)o1)c1ccc(Br)s1,11.6µg/mL*
O=C(CSc1nncc(=O)[nH]1)Nc1ccc(Cl)cc1Cl,-22.9%
COc1ccc(OCCSc2nc3ccccc3n2CCO)cc1,-8.6%
COC(=O)c1ccc(NC(=O)CSc2ncc(CO)n2Cc2ccc(F)cc2)cc1,10.8%
Brc1cccc2sc(N3CCCCC3)nc12,17.1%
CC1CCc2sc(NC(=O)c3ccc(C(=O)c4ccccc4)cc3)c(C(N)=O)c2C1 (stereo not drawn),-6.1%
CCCNC(=O)CSc1nnc(CNC(=O)c2cccc([N+](=O)[O-])c2C)o1,3.7%
COc1ccc2c(c1)c(=O)c(C(=O)c1ccc(C)cc1)cn2CC(=O)Nc1ccc(F)cc1,5.1%
CC(=O)N1CCN(C(c2cccc(Br)c2)c2sc3nc(C)nn3c2O)CC1 (stereo not drawn),-2.9%
COc1ccc2cc(CCNC(=O)c3ccc(Cl)cc3Cl)c(=O)[nH]c2c1,-4.4%
O=C(C1=C(O)C(=O)N(c2nncs2)C1c1cccs1)c1cccs1 (stereo not drawn),0.7%
O=C(CSc1nnc2ccc(-c3cccnc3)nn12)Nc1nc2ccccc2s1,1.4%
COc1ccc(-c2nnc(NC(=O)COc3ccc4ccccc4c3)s2)cc1,1.9%
C=CCSc1nc2c(c(=O)[nH]1)C(c1ccc(N(C)C)cc1)C1=C(CCCC1=O)N2 (stereo not drawn),-8.8%
COc1ccc(OCC(=O)N/N=C/c2ccccc2O)cc1,-13.0%
COc1ccc(-c2nnc(NC(=O)c3cc4ccccc4cc3OC)o2)cc1,26.3µg/mL*
O=C(CN1C(=O)CCC1=O)Nc1ncc(S(=O)(=O)c2ccc([N+](=O)[O-])cc2)s1,17.0%

Some values from the entries so far:
In Mtb growth, CCC(=O)Nc1sc2c(c1C(N)=O)CCN(Cc1ccccc1)C2 shows 4.9%
In Mtb growth, CCOC(=O)c1nn(-c2ccc(F)cc2)c(=O)c2c(NC(=O)Cc3ccc(OC)c(OC)c3)scc12 shows -7.2%
In Mtb growth, O=S1(=O)CCC(NCc2cccnc2)C1 (stereo not drawn) shows -0.4%
In Mtb growth, CCOc1ccc(-c2nnc3ccc(SCC(N)=O)nn23)cc1 shows -1.9%

(listing goes on)
canonical_smiles,Mtb growth
Cc1nnc(SCC(=O)Nc2ccc(C(F)(F)F)cc2)n(N)c1=O,-2.0%
Cc1cc(NC(=O)c2ccc(-c3nc4ccccc4s3)s2)no1,-4.1%
O=C(CSc1nc2c(c(=O)n1-c1ccccc1)SCC2)Nc1ccccc1,-5.3%
Cc1ccc(N2CC(NC(=O)Nc3cc(C)ccn3)CC2=O)cc1 (stereo not drawn),9.1%
COc1ccc(-c2nnc3c4cc5c(cc4n(Cc4ccc(Cl)cc4)cc2-3)OCCO5)cc1,81.0%
O=C(Cc1ccccc1)Nc1ccc(S(=O)(=O)Nc2nccs2)cc1,-1.8%
COc1ccc([N+](=O)[O-])cc1NC(=O)c1cc(Cl)cc(Cl)c1,-3.9%
Cc1nc2sc(C(c3ccc(F)cc3)N3CCN(C(=O)c4ccco4)CC3)c(O)n2n1 (stereo not drawn),2.6%
COc1ccc(-n2nc3c(c2NC(=O)c2c(OC)cccc2OC)CSC3)cc1,5.1%
O=C(O)c1cccc(N=Cc2ccc(O)c([N+](=O)[O-])c2)c1,-6.1%
CCOc1ccccc1NC(=O)c1oc2ccccc2c1NC(=O)C1CCCO1 (stereo not drawn),-2.2%
CCOc1ccc(NC(=O)Cn2nnc(C(=O)Nc3ccccc3F)c2N)cc1,-3.1%
Cc1cc(Br)ccc1NC(=O)c1cnc2sccn2c1=O,11.0%
Nn1c(SCC(=O)Nc2ccccc2C(F)(F)F)nnc(CCC(=O)O)c1=O,-14.9%
O=C(/C=C/c1c(Cl)cccc1Cl)Nc1ccc([N+](=O)[O-])cc1,-1.9%
CC(C)CCn1c(N2CCN(Cc3ccc(Cl)cc3)CC2)nc2c1c(=O)[nH]c(=O)n2C,3.0%
CC(=O)c1ccc(C(=O)Nc2nc3c(C)cccc3s2)cc1,5.7%
O=S(=O)(c1ccc(Cl)cc1)c1nnn2c1nc(NCc1ccc3c(c1)OCO3)c1sccc12,-8.8%
COc1ccc(N2C(=O)/C(=C3/C(=O)N(C)c4ccccc43)SC2=S)c(OC)c1,-6.8%
COc1ccc(-c2nnc(NC(=O)c3cc4ccccc4oc3=O)s2)c(OC)c1,18.9%
CCS(=O)(=O)c1ccc(CC(=O)Nc2nnc(-c3ccc(Cl)cc3)o2)cc1,-1.2%
CC(C(=O)O)N1C(=O)S/C(=C\c2ccccc2)C1=O (stereo not drawn),2.4%
N#Cc1c(SCC(N)=O)nc2c(c1-c1ccc(OCc3ccccc3)cc1)CCCC2,3.5%
Cc1ccc(NC(=O)CSc2nc(N)c(NC(=O)c3ccc(Br)o3)c(=O)[nH]2)c(C)c1,-8.8%
CCOc1ccccc1N(C(C)=O)C1C=CS(=O)(=O)C1 (stereo not drawn),1.8%
CN1CCc2c(sc(NC(=O)c3ccc(-c4nc5ccccc5s4)s3)c2C(N)=O)C1,5.5%
Cc1ccc(-c2csc(NC(=O)c3ccc(S(=O)(=O)N(C)C)cc3)n2)cc1,2.3%
COC(=O)c1ccc(NC(=O)NC2CC(=O)N(c3ccc4c(c3)OCCO4)C2)cc1 (stereo not drawn),-6.8%
CC(C)c1nnc(NC(=O)CC23CC4CC(CC(C4)C2)C3)s1,-3.8%
CC(N)C(=O)Oc1ccc2c(=O)c(-c3ccon3)coc2c1 (stereo not drawn),19.6%

Pulled one by one from the entries so far (three):
canonical_smiles,Mtb growth
COc1ccc(-c2nnc(NC(=O)c3cc4ccccc4cc3OC)o2)cc1,26.3µg/mL*
COc1ccc(-c2nnc3c4cc5c(cc4n(Cc4ccccc4)cc2-3)OCO5)cc1,7.7%
O=C(Nc1nnc(-c2ccc(Cl)s2)o1)c1ccc(Br)s1,11.6µg/mL*

More compounds:
canonical_smiles,Mtb growth
Cc1c(C)n2c(SCc3cccc(F)c3)nnc2[nH]c1=O,-13.2%
CCOC(=O)c1nn(-c2ccc(OC)cc2)c(=O)c2c(NC(=O)C(CC)c3ccccc3)scc12 (stereo not drawn),-0.9%
CCC(CC)C(=O)NCCc1cc2cc(C)c(C)cc2[nH]c1=O,-2.2%
C#CCOC(=O)CN1C(=O)c2cccc3cccc(c23)C1=O,3.1%
N#CC1=C(N)Oc2c(oc(CO)cc2=O)C1c1cccc(F)c1 (stereo not drawn),-0.5%
COc1ccc(CC(=O)Oc2cc(C)[nH]c(=O)c2[N+](=O)[O-])cc1,-1.3%
CSc1nnc(NC(=O)c2ccco2)s1,7.5%
O=C(NCCSc1c[nH]c2ccccc12)c1ccc(-c2ccccc2)cc1,95.8%
O=C1C(Cl)=C(Nc2cc(Cl)ccc2O)C(=O)N1c1ccccc1,19.7%
Cc1nc2c(ccc3nc(NC(=O)c4ccccc4I)sc32)s1,3.9%
Cc1cc(=O)n2c3ccccc3n(CC(O)CN3CCN(Cc4ccc(Cl)cc4)CC3)c2c1C#N (stereo not drawn),6.3%
Nc1ncnc(NNC(=O)CNC(=O)c2ccc(S(=O)(=O)N3CCCCC3)cc2)c1[N+](=O)[O-],-0.9%
CCCCCCn1c(=N)c(C#N)cc2c(=O)n3cccc(C)c3nc21,10.2%
CN(C)S(=O)(=O)c1ccc2c3c(cccc13)C(=O)N2C(=O)c1cccs1,5.6%
O=C(Nc1c(C(=O)Nc2ccccc2F)oc2ccccc12)c1ccc([N+](=O)[O-])cc1,-4.2%
Cc1ccc(C)c(-c2nnc(NC(=O)/C=C/c3ccccc3)o2)c1,75.9%
Cn1c(Cn2c(=O)sc3ccccc32)nnc1SCC(=O)Nc1ccc(Cl)cc1,-5.8%
CC(C)NC(=O)CSc1nc(N)c(NC(=O)c2ccc(F)cc2)c(=O)[nH]1,9.2%
COc1ccc(N2CCN(c3oc(COc4ccc(F)cc4)nc3C#N)CC2)cc1,44.0%
Cc1ccc(NC(=O)Nc2nnc(SCC(=O)NCc3ccco3)s2)cc1C,-10.3%
C=CCSc1nc2c(c(=O)[nH]c(=O)n2C)n1CCc1ccccc1,57.2%
COc1ccc(C(=O)Nc2nc3c(OC)cccc3s2)cc1OC,-1.1%
CCOc1ccc(-c2nnc3ccc(SCC(=O)Nc4ccc5c(c4)OCO5)nn23)cc1,-0.3%
O=c1oc2c(Cl)cc(Cl)cc2cc1-c1nnc(Nc2ccccc2F)s1,-5.7%
Cn1c(=O)[nH]c(=O)c2c1nc(SCCCO)n2Cc1ccccc1,9.2%
Cc1ccc2nc(NCc3ccccc3)c(C=Nc3ccc(Cl)cc3)c(=O)n2c1,3.3%
O=C(CCN1CCOCC1)N1N=C(c2ccc(Cl)cc2)CC1c1ccco1 (stereo not drawn),-3.1%
O=C(CSc1nnc2ccc(-c3ccco3)nn12)c1cccc([N+](=O)[O-])c1,-4.6%

Structures shown so far with a CF3 group:
canonical_smiles,Mtb growth
Cc1nnc(SCC(=O)Nc2ccc(C(F)(F)F)cc2)n(N)c1=O,-2.0%
Nn1c(SCC(=O)Nc2ccccc2C(F)(F)F)nnc(CCC(=O)O)c1=O,-14.9%
